Screening results from PubChem BioAssay.
SmPrx2 inh = Schistosoma Mansoni Peroxiredoxins (Prx2); Schistosoma mansoni peroxiredoxin 2 (Prx2); S. mansoni Prx2 activity coupled to TGR/GSH (TGR is thioredoxin glutathione reductase), NADPH fluorescence loss, qHTS; some inactives read as strong as hits; Potency, µM; 65,000 tested, 0.07% active; AID 448, 2006; active means full or partial inhibition curve with a strong effect at the top dose; inconclusive means weaker partial or single-point curve; inactive means no accepted curve; further: series up to 57 µM; many of its hits are not listed in these tables
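Purified S. mansoni TGR and Prx2 in pH 7.4 phosphate buffer with EDTA and Tween-20 were preincubated with compounds for 15 min. Further NADPH/GSH was added, then a 2.5 mM H2O2 aliquot initiated turnover, followed kinetically by NADPH fluorescence.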
Anthrax LT inh = qHTS Assay for Anthrax Lethal Toxin Internalization. Potency, µM (series often up to 40 µM), inactives show top-dose activity change, negative = inhibition, hits mostly inhibitors. 70,000 tested, 0.67% active. AID 912, 2007. Cells, anthrax lethal toxin internalization, FRET ratio (460/530); active = well fitted falling ratio curve with the 530 nm signal flat; inconclusive = other ratio curves, or a change in one channel alone; inactive = flat curves in the ratio and both channels; the % refers to the ratio; further: on the % scale 0 is the no-effect control and ±100 the full control effect; nearly all actives have a fitted effect of over 50% in size; tested in ME-180 cells; beta-lactamase reporter
Numbers without * were called inactive; ? = inconclusive; nt = no result given; [ ] = dose if it differs, or a comment. Potency means the concentration at half of the fitted maximal effect. Only part of the results is shown; count on the stated rates, not on these rows.

SMILES	SmPrx2 inh	Anthrax LT inh
O=C1CC(c2ccc(F)cc2)Cc2nc(NCc3ccco3)ncc21 (stereo not given)	>57	-5%
O=C(Cn1nnc2ccccc2c1=O)NCc1ccco1	>57	6%
c1ccc2c(c1)CCN(c1nc3cc4c(cc3s1)OCCO4)C2	>57	7%
CC1=C(C(=O)OC(C)C)C(c2cccs2)n2ncnc2N1 (stereo not given)	>57	?
Cc1ccc(CNC(=O)CCCOc2cc(=O)n(C)c3ccccc23)o1	>57	-11%
CC(NC(=O)C1CC=CCC1C(=O)O)C1CC2CCC1C2 (stereo not given)	>57	?
O=C(c1cccs1)C1CN2CCC1CC2 (stereo not given)	nt	-20%
CCn1c(SCC(=O)N2CCCC2)nc2c1c(=O)n(C)c(=O)n2C	>57	-12%
Cc1cn([C@@H]2C[C@H](N=[N+]=N)[C@H](CO)O2)c(=O)[nH]c1=O	>57	-12%[3.58 µM]
CC1CCN(S(=O)(=O)c2cccc(-c3nnc(-c4cccnc4)o3)c2)CC1	>57	0%
Cn1c(NCc2c[nH]c3ccccc23)nc2ccccc21	>57	-10%
Cc1ccc(SCCN2C(=O)NC(C)(C)C2=O)cc1	>57	nt
Cc1ccc(N2CC(C(=O)NC3CCSC3=O)CC2=O)cc1 (stereo not given)	>57	-14%
CC(C)N(Cc1nc(-c2ccc(Cl)cc2)no1)C(=O)C12CC3CC(CC(C3)C1)C2	>57	?
COc1cccc(-c2nc(CS(=O)(=O)CC(=O)Nc3cccc(C)c3C)c(C)o2)c1	>57	?
CCCN1C(=O)C(O)(CC(=O)c2ccc3c(c2)OCCO3)c2ccccc21 (stereo not given)	>57	11%
CCCC(NS(=O)(=O)c1ccc(Br)cc1)C(=O)O (stereo not given)	nt	-3%
O=C(O)c1ccc([N+](=O)[O-])cc1	nt	?
CC(C)N(C=O)C1(C(=O)NC2CCCCC2)CCCCC1	>57	-2%
O=C(c1ccncc1)N1CCC[C@@]2(CCN(c3cccc(-c4ccccc4)c3)C2)C1	>57	?
O=C(O)[C@H]1[O][Sb][O][C@@H](C(=O)O)C1O (stereo not given in full)	>11	-4%[8 µM]
CCN(CC)C(c1ccc(F)cc1)c1nnnn1C1CCCCC1 (stereo not given)	>57	-8%
ON=C1/C(=N\O)CC2(C/C1=N/O)OCCO2	>57	11%
CCOC(=O)N1CCN(C(=O)Cn2nc(-c3ccc(Cl)cc3)ccc2=O)CC1	>57	-7%
O=C(NCN1CCN(c2ccccc2F)CC1)c1ccccc1	>57	-11%
CCCCNC(=O)c1cc2c(=O)n3cccc(C)c3nc2n(CCN2CCOCC2)c1=N	>57	-7%
CCOc1ccc(C(=O)O)cc1OC	>57	4%
COc1cccc(Cn2c(=O)c(-c3cccs3)nc3cnc(N4CCOCC4)nc32)c1	>57	?
CN1CCN(C(=O)c2ccccc2-c2nc(-c3ccccc3)no2)CC1	>57	11%
CC12CN3CC(C)(CN(C1)C3c1cccs1)C2 (stereo not given)	>57	-23%
CCCOc1cccc(C(=O)Nc2cccnc2)c1	nt	-10%
COc1cc2c3cc1Oc1cc(ccc1O)C[C@@H]1c4c(cc(OC)c(O)c4Oc4cccc(c4)C[C@H]3N(C)CC2)CC[N+]1(C)C	>57	-3%[3.58 µM]
COc1ccc(OC)c2[nH]c(=O)c(CCNC(=O)C3CCCCC3)cc12	>57	9%
O=C1CC(Nc2ccc(N3CCOCC3)cc2)C(=O)N1c1ccccc1F (stereo not given)	>57	4%
Cc1ccc(S(=O)(=O)N(C)c2ccc(C(=O)N3CCC(C(N)=O)CC3)cc2)cc1	>57	1%
CCCCCCn1c(C(C)NC(=O)c2ccco2)nc2ccccc21 (stereo not given)	nt	7%
C=CCn1c(=N)n(CC(=O)O)c2ccccc21	>57	-13%
O=C(CCC(=O)c1cccs1)OCC(=O)N1CCN(S(=O)(=O)c2ccccc2)CC1	>57	1%
N#CCCn1cnc2ccccc21	>57	?
CCN1c2nc3c(C)cccn3c(=O)c2CC2(C(=O)N(C)C(=O)N(C)C2=O)C1C (stereo not given)	>57	?
COc1ccc(C(C(=O)NC2CCCC2)N(CCN(C)C)C(=O)c2snc(C(N)=O)c2N)cc1 (stereo not given)	>57	10%
O=C1OCc2cc(NC(=O)C3CCCCC3)ccc21	>57	-1%
O=C(C1CCC(CNc2nc(=S)[nH]c3ccccc23)CC1)N1CCN(c2ccccn2)CC1 (stereo not given)	>57	1%
C=CCSc1nnc(-c2ccncc2)n1-c1ccc(OCC)cc1	>57	-3%
C=CCN(CC=C)S(=O)(=O)c1ccc2nsnc2c1	nt	-11%
Cc1cccc(Cn2c(SCCN3CCOCC3)nc3c2c(=O)n(C)c(=O)n3C)c1	>57	13%
O=C(CN1C(=O)c2cccc3cccc1c23)N1CCN(c2ccccc2)CC1	>57	0%
COc1cc(CN2CCC(C(=O)NC3CCCC3)CC2)cc(Br)c1O	>57	3%
O=C(CSc1nnc(Cc2cc(=O)[nH]c(=O)[nH]2)n1-c1ccccc1)N1CCCc2ccccc21	>57	-19%
CCCCS(=O)(=O)NC1=NCN(CCO)CN1	>57	-2%
CC(C)[C@@H]1NC(=O)N(c2ccc(Oc3ccccc3)cc2)C1=O	>57	-6%
O=C(Nc1ccccc1C(=O)N1CCN(Cc2ccccc2)CC1)c1ccccn1	nt	-1%
COc1ccc(OCC2Cc3c(-c4ccccc4)nc4c(c3CO2)CN(CCOc2ccccc2)CC4)cc1 (stereo not given)	nt	-20%[8 µM]
COc1ccccc1C(=O)NC(C)c1nc2ccccc2[nH]1 (stereo not given)	>57	-8%
Cc1ccccc1Cn1nc(C)c(NC(=O)c2cc3n(n2)C(C(F)F)CC(C(F)F)N3)c1C (stereo not given)	>57	8%
O=C(CCN1CCN(C(=O)c2ccco2)CC1)Nc1ccc(F)cc1	>57	-9%

(further entries)
SMILES	SmPrx2 inh	Anthrax LT inh
O=C(CCc1nc(-c2ccccc2F)no1)NCc1ccco1	>57	2%
CCCCn1cnc2c(SC)ncnc21	>57	-5%[8 µM]
CCOC(=O)c1cc2sc(C)cc2n1C(C)C(=O)OCC (stereo not given)	>57	-9%
O=C(NC1CCCCCC1)c1c(O)c2cccc3c2n(c1=O)CCC3	>57	nt
CC(C)(SCc1ccccc1)[C@H](N)C(=O)O	>57	-2%[8 µM]
O=C1NC(Cc2c[nH]c3ccccc23)C(=O)N1CCOc1ccc(F)cc1 (stereo not given)	>57	5%
COc1ccc(-n2c(Cc3cccn3C)nnc2SCC(N)=O)cc1	>57	0%
O=C(Nc1nc2ccccc2n1CCOc1ccccc1)c1ccco1	>57	-4%

The closing 6 entries of the section above come first, to join the parts.
SMILES	SmPrx2 inh	Anthrax LT inh
CCOC(=O)c1cc2sc(C)cc2n1C(C)C(=O)OCC (stereo not given)	>57	-9%
O=C(NC1CCCCCC1)c1c(O)c2cccc3c2n(c1=O)CCC3	>57	nt
CC(C)(SCc1ccccc1)[C@H](N)C(=O)O	>57	-2%[8 µM]
O=C1NC(Cc2c[nH]c3ccccc23)C(=O)N1CCOc1ccc(F)cc1 (stereo not given)	>57	5%
COc1ccc(-n2c(Cc3cccn3C)nnc2SCC(N)=O)cc1	>57	0%
O=C(Nc1nc2ccccc2n1CCOc1ccccc1)c1ccco1	>57	-4%
Cc1nn(-c2ccc(Cl)cc2)c2[nH]c(=O)c(CNCc3ccc4c(c3)OCO4)cc12	>57	5%
CCCSc1ccc2nc(NC(=O)OC)[nH]c2c1	>57	-34%[3.58 µM]
CS(=O)(=O)c1ccc2nc(NC(=O)CN3CCN(Cc4ccccc4)CC3)sc2c1	>57	4%
Cc1ccc(S(=O)(=O)NC(=O)N2CCCC(C)(C)C2)cc1	>57	-5%
O=C(CCCCn1c(=S)[nH]c2ccsc2c1=O)NCc1ccco1	>57	-7%
COCCn1c(SCC(=O)Nc2ccc3c(c2)OCCO3)nnc1-c1c[nH]c2ccccc12	>57	nt
O=C(/C=C/Nc1cccc(O)c1)c1ccccc1	nt	-22%
CCC1(C)NC(=O)N(CC(=O)Nc2sc3c(c2C(N)=O)CCC3)C1=O (stereo not given)	>57	-4%
C[C@@H]1c2ccccc2Cn2cc3c(c21)C(=O)c1cccc(OP(=O)(O)OCc2ccccc2)c1C3=O	>57	3%[8 µM]
Cc1ccc(C2=C(Cl)C(=O)C(c3ccc(C)cc3)=C(Cl)C2=O)cc1	nt	-6%[8 µM]
Cc1ccc(NC(=O)c2ccc(NS(=O)(=O)c3c(C)noc3C)cc2)cc1C	>57	3%
COCC(N)(c1ccccc1)c1nc2ccccc2n1C (stereo not given)	>57	-9%
COc1ccccc1Nc1ncc(C(=O)N2CCC(C(N)=O)CC2)c2ccccc12	>57	11%
O=C(CCCCC(=O)NCc1cccs1)NCc1cccs1	>57	-5%
CC(O)COC(C)(C)C (stereo not given)	nt	6%
O=C(Nc1nncs1)c1ccccc1Br	>57	10%
CCOC(=O)c1c(C)nc2cc(C)ccn12	>57	-11%
Cc1ccc2nc3sc(C(=O)N4CCOCC4)c(N)c3cc2c1	>57	6%
COc1ccc(C2C3=C(N=C4SCC(=O)N42)c2ccccc2CC3)cc1 (stereo not given)	>57	-10%
O=C1CC(N2CCN(c3ccc(C(=O)c4ccc(F)cc4)cc3)CC2)C(=O)N1 (stereo not given)	>57	12%
CC(=O)NC(C)C12CC3CC(CC(C(=O)O)(C3)C1)C2 (stereo not given)	>57	-5%
CCc1ccc(Cn2nnc(C(=O)Nc3ccc(OC)cc3OC)c2N)cc1	>57	-10%
Cc1c(NC(=O)CSc2nnc(-c3ccco3)n2-c2ccccc2)c(=O)n(-c2ccccc2)n1C	nt	8%
O=C(CN(Cc1ccccc1C(F)(F)F)C(=O)CNC(=O)c1ccco1)NC1CCCC1	>57	?
Cc1ccc(C)c(N(C)C(=O)COc2cc(=O)n(C)c3ccccc23)c1	>57	?
COc1ccccc1N1CCN(c2nc3ccccc3nc2C(C#N)C(=O)OC(C)C)CC1 (stereo not given)	>57	-14%
Cc1cc(C)n(C(=O)C2CCCN2S(=O)(=O)c2ccc(Cl)cc2)n1 (stereo not given)	>57	-5%
O=C(O)c1nn(-c2ccccc2-c2n[nH]c(=O)[nH]c2=O)c(=O)[nH]c1=O	>57	3%[8 µM]
CCCS(=O)(=O)N1CCC(C(=O)NCCCOC)CC1	>57	-3%
O=C(OCc1nnc(-c2ccccc2)o1)c1ccc2c(c1)C(=O)N(CCc1ccccc1)C2=O	>57	-4%
CCOC(=O)c1sc(C)nc1C1CCN(C(=O)OCC)CC1	>57	-1%
Cc1ccc(C)c(N2CCN(c3cc(C)nc4nnnn34)CC2)c1	>57	2%
CC12CN3CC(C)(CN(C1)P3(=O)Oc1ccccc1)C2=O (stereo not given)	nt	7%
COc1cccc(C2N(c3cccc(Cl)c3)C(=O)C3CCCN32)c1OC (stereo not given)	>57	2%
COCCOC(=O)c1ccccc1C(=O)OCCOC	nt	7%
CCOc1ccccc1-n1nnnc1SCC(=O)NC(=O)NCc1ccco1	>57	-10%
CCN1C(=O)c2cccc3c(S(=O)(=O)NCCCN4CCOCC4)ccc1c23	>57	5%
CCN1CCN(c2nc3c(c(=O)n(C)c(=O)n3C)n2Cc2cccc3ccccc23)CC1	>57	9%
CCC(=O)N(Cc1cc2cc(C)c(C)cc2[nH]c1=O)C1CCCCC1	>57	-13%
COc1cc(-n2nnnc2SCC(=O)N2CCN(c3ccc(F)cc3)CC2)c(OC)cc1Cl	>57	-24%
Cc1c(Cl)cccc1NC(=O)CCCCCN1C(=O)CCC1=O	>57	-5%
Cc1ccc(CCN2C(=O)CCC2(C)C(=O)NC2CCCC2)cc1 (stereo not given)	>57	-4%
Cc1ccccc1C(=O)NC1CCN(CC(=O)Nc2nccs2)CC1	>57	-10%
CCOP(=S)(OCC)Oc1nc(Cl)c(Cl)cc1Cl	nt	?
CCN(CC)c1ccc(NS(=O)(=O)c2ccc3c(c2)oc(=O)n3C)c(C)c1	>57	?
CCOc1ccc2nc(NCCNC(=O)Nc3ccccc3)c(C#N)cc2c1	>57	?
COC(=O)c1ccc(C(NC(=O)OCc2ccccc2)/C(=C/[C@@H](C)C(=O)NCc2cc(C)n(C)n2)c2cccnc2)cc1 (stereo not given in full)	nt	-5%
CCCCOCCCNC(=O)Cc1ccccc1OC	nt	1%
CC1CCN(C(=O)CN(CCc2ccccc2)S(C)(=O)=O)CC1	>57	13%
Cc1cnc(C(=O)OCC(=O)Nc2cccc(Cl)c2)cn1	>57	-2%
O=S(=O)(C/C(=C/CO)S(=O)(=O)c1ccccc1)c1ccccc1	nt	?
O=C1C=CC(=O)C2=C1C1c3ccccc3C2c2ccccc21	nt	?
Nc1nc(CN2CCN(c3ccc(F)cc3)CC2)nc(N2CCCc3ccccc32)n1	>57	-17%
